Source: PubChem BioAssay
Ba CapD inh – CapD enzyme inhibition; purified CapD enzyme, fluorescence intensity read-out; stronger effect = lower value; some hits fall short of the stated cut; z-score (test concentration not listed); actives 0.23% (n = 140,000); AID 492967;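 active = z-score under -4 in either of two replicates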;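 note: stock transfer was 100 nL into about 40 µL; score is relative to mean and spread of the plate; one replicate is shown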
AID504770 – E. coli YBA685 growth inhibition, screen for V. cholerae RctB inhibitors | E. coli YBA685 rctB-dependent plasmid, OD600 growth, 3 h; stronger effect = lower value | AID 504770 | actives 0.27% (n = 130,000) | z-score (concentration not given with the values);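 active = z-score under -2 on both plates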;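 note: wells of about 30 µL received 100 nL stock; score is relative to mean and SD of the test wells; the first replicate is given; strong numbers were not always called active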
Numbers without * were called inactive; . = no result given. An excerpt (hit frequency here may not be typical).

#1 Cc1csc(NC(=O)CSc2nc(-c3cccs3)cc(-c3cccs3)c2C#N)n1
#2 COc1ccc2[nH]cc(CCNC(=O)OCCC3=CCC4CC3C4(C)C)c2c1 (stereo not drawn)
#3 CCn1c(-c2ccc(Cl)cc2)csc1=Nc1ccc(O)cc1
#4 Cc1ccc(F)cc1S(=O)(=O)N1CCN(C(=O)Cc2ccc(Br)cc2)CC1
#5 O=C(/C=C/c1cccc(C(F)(F)F)c1)NNC(=O)OCCCc1ccccc1
#6 CCOC(=O)C1CCCN(S(=O)(=O)c2cc(C(=O)Nc3ccc(Oc4ccccc4)cc3)ccc2F)C1 (stereo not drawn)
#7 NC(=O)NC(=O)CC1Nc2ccccc2NC1=O (stereo not drawn)
#8 CCOC(=O)C1=C(N)Oc2c(c(=O)oc3ccccc23)C1c1ccccc1 (stereo not drawn)

assay / compound,1,2,3,4,5,6,7,8
Ba CapD inh,3.1,-0.2,.,-0.27,9.4,-0.22,-0.45,0.72
AID504770,.,.,0.2,.,.,.,1.5,-0.25

From entry 7 to 8, as listed above:
#7 NC(=O)NC(=O)CC1Nc2ccccc2NC1=O (stereo not drawn)
#8 CCOC(=O)C1=C(N)Oc2c(c(=O)oc3ccccc23)C1c1ccccc1 (stereo not drawn)

assay / compound,7,8
Ba CapD inh,-0.45,0.72
AID504770,1.5,-0.25

In the list so far, these have nitrogen in an aromatic ring:
#1 Cc1csc(NC(=O)CSc2nc(-c3cccs3)cc(-c3cccs3)c2C#N)n1
#2 COc1ccc2[nH]cc(CCNC(=O)OCCC3=CCC4CC3C4(C)C)c2c1 (stereo not drawn)
#3 CCn1c(-c2ccc(Cl)cc2)csc1=Nc1ccc(O)cc1

assay / compound,1,2,3
Ba CapD inh,3.1,-0.2,.
AID504770,.,.,0.2

Later entries.
#9 FC(F)(F)COc1ccc(-c2nc(-c3ccc(Cl)cc3)no2)cn1
#10 CC1CCN(c2ncnc3c2cnn3-c2ccccc2)CC1
#11 CSc1nc(C)c(Oc2ccccc2)c(=O)n1C
#12 O=C(N/C=N/O)c1ccc(-n2ccnc2)cc1
#13 CC(=O)NC(Nc1ccc(S(N)(=O)=O)cc1)(C(F)(F)F)C(F)(F)F
#14 N#Cc1ccc(OCC(=O)N2CCCc3ccccc32)cc1

assay / compound,9,10,11,12,13,14
Ba CapD inh,-0.25,0.39,.,-0.91,-0.03,-1.1
AID504770,2,0.05,0.1,-0.1,-0.4,1.5
